Assay outcomes (PubChem)
Vaccinia stage: blocks a specific stage of Vaccinia orthopoxvirus infection, primary screen, cell-based, single point; 89,000 tested, 0.01% active; activity change (mCherry), % (no concentration beside the values); Vaccinia-infected cells, mCherry/Venus stage reporter fluorescence; hits give low values; some inactives read as strong as hits;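 active means mCherry past -33% and 40 or more points under the early reporter, replicates agreeing; inconclusive means past -33% without that gap or agreement; tested in A549 cells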;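 further: scaled between vehicle wells and reference inhibitor wells; 23 nL library stock went into each well; one replicate is shown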
Vaccinia stage Venus: further read-out of Vaccinia stage, marked with its call; activity change (Venus), %; measured here: Venus reporter, other viral stage;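 negative = less Venus signal; first of two replicates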
Starred values were filed as active, the others as inactive; ? = inconclusive; / = no result given. These rows are one share of the data. The share of hits here may be higher or lower than overall.

SMILES	Vaccinia stage	Vaccinia stage Venus
C[C@H](CO)N1C[C@H](C)[C@@H](CN(C)Cc2ccc3c(c2)OCO3)Oc2ccc(NC(=O)Nc3cccc4ccccc34)cc2CC1=O	-13.5	-4.5
CO[C@@H]1CN(C)C(=O)c2cc(NC(=O)c3ccccc3F)ccc2OC[C@@H](C)N(C(=O)c2ccccc2F)C[C@H]1C	-4.3	-5.2
C[C@@H]1CN([C@@H](C)CO)S(=O)(=O)c2ccc(C#C[C@@H](C)O)cc2O[C@@H]1CN(C)C(=O)c1ccncc1	-0.7	-3.5
COCCNC(=O)C[C@H]1C=C[C@H](NC(=O)NC2CCCCC2)[C@H](CO)O1	-8.7	1.6
COCC(=O)N1CCCCN2[C@H](CO)[C@@H](c3ccc(-c4ccccc4)cc3)[C@H]2C1	14.8	4.0
C[C@@H]1CN([C@@H](C)CO)C(=O)c2ccccc2-c2ccccc2CO[C@H]1CN(C)S(=O)(=O)c1ccsc1	9.8	3.3
CCC(=O)N(C)C[C@@H]1Oc2cc(C#C[C@@H](C)O)ccc2S(=O)(=O)N([C@@H](C)CO)C[C@H]1C	12.9	17.6
C[C@@H]1CN([C@H](C)CO)C(=O)c2cc(C#C[C@@H](C)O)cnc2O[C@@H]1CN(C)C(=O)c1ccccc1	6.9	-2.3
COCC(=O)Nc1ccc2c(c1)OC[C@H](C)N(CCc1ccccc1)C[C@H](C)[C@H](OC)CN(C)C2=O	1.4	-0.7
O=C(Nc1ccc(Cl)cc1)N[C@H]1CC[C@@H](CCn2cc(C3(O)CCCC3)nn2)O[C@H]1CO	-10.6	-8.4
N#Cc1ccc(-c2ccc3c(c2)[C@@H]2[C@@H](CCN2C(=O)c2ccc4c(c2)OCO4)[C@H](CO)N3)cc1	-15.5	1.1
Cc1noc(C)c1NC(=O)N(C)C[C@H]1Oc2ccc(NS(=O)(=O)c3ccccc3)cc2C(=O)N([C@@H](C)CO)C[C@H]1C	-3.1	10.5
COCC(=O)N[C@@H]1CC[C@H](CC(=O)N2CCCCC2)O[C@@H]1CO	8.4	9.1
C[C@@H]1CN([C@@H](C)CO)C(=O)Cc2cc(NC(=O)CCCCCC(=O)Nc3ccccc3N)ccc2O[C@@H]1CN(C)Cc1ccncc1	4.3	4.8
Cc1noc(C)c1S(=O)(=O)Nc1ccc2c(c1)CC(=O)N([C@H](C)CO)C[C@H](C)[C@@H](CN(C)Cc1ccc3c(c1)OCO3)O2	-5.2	-5.7
Cc1ccc(S(=O)(=O)N(C)C[C@H]2Oc3ccc(NC(=O)CCCCCC(=O)Nc4ccccc4N)cc3CC(=O)N([C@H](C)CO)C[C@H]2C)cc1	7.8	8.3
C[C@@H]1CN([C@@H](C)CO)C(=O)c2ccccc2-c2ccccc2CO[C@H]1CN(C)C(=O)Nc1ccc(-c2ccccc2)cc1	-30.0	-22.5
Cc1noc(C)c1NC(=O)Nc1ccc2c(c1)C(=O)N([C@@H](C)CO)C[C@@H](C)[C@H](CN(C)S(=O)(=O)c1cn(C)cn1)OCCCC[C@H](C)O2	15.0	14.4
COc1ccccc1NC(=O)N[C@@H]1C=C[C@@H](CC(=O)NCc2ccc(Cl)c(Cl)c2)O[C@H]1CO	-11.0	-7.4
O=S(=O)(NCC[C@@H]1CC[C@@H](NS(=O)(=O)c2ccccc2Cl)[C@@H](CO)O1)c1ccc(F)cc1	2.4	-0.1
COc1ccc(-c2cn(CC[C@@H]3CC[C@@H](NC(=O)c4cnccn4)[C@@H](CO)O3)nn2)cc1	15.1	10.6
C[C@H]1CN([C@@H](C)CO)C(=O)c2cc(NC(=O)c3ccncc3)ccc2O[C@H]1CN(C)C	17.9	9.9
C[C@H]1CN([C@@H](C)CO)C(=O)c2cc(NC(=O)Cc3ccccc3)ccc2O[C@@H]1CN(C)C(=O)NC1CCCCC1	7.8	2.8
C[C@@H]1CN([C@H](C)CO)C(=O)c2cc(NS(C)(=O)=O)ccc2O[C@@H]1CN(C)C(=O)Nc1ccc2c(c1)OCO2	34.2	19.6
COc1ccc(CN(C)C[C@@H]2Oc3ccc(NS(=O)(=O)c4ccc(OC)cc4)cc3CC(=O)N([C@H](C)CO)C[C@@H]2C)cc1	-8.1	-6.9
SMILES	Vaccinia stage	Vaccinia stage Venus
O=C(C[C@@H]1CC[C@@H]2[C@H](COC[C@@H](O)CN2Cc2ccc(Cl)cc2)O1)NCc1ccccc1Cl	-7.3	-11.5
C[C@@H]1CN([C@@H](C)CO)C(=O)Cc2cc(NC(=O)CCC(F)(F)F)ccc2O[C@H]1CN(C)S(=O)(=O)c1ccc(F)cc1	-2.3	-4.1
COC(=O)C[C@@H]1CC[C@@H]2[C@H](COc3ccc(NS(=O)(=O)c4cccc(F)c4)cc3C(=O)N2C)O1	0.7	-6.4
O=C(C[C@H]1C[C@H]2c3cc(NC(=O)c4ccc5c(c4)OCO5)ccc3O[C@H]2[C@H](CO)O1)NC1CCCCC1	1.0	14.5
C[C@@H]1CN([C@H](C)CO)C(=O)c2cccc(NC(=O)NC3CCCCC3)c2O[C@@H]1CN(C)Cc1ccc(-c2ccccc2)cc1	-29.6	-20.8
C[C@@H]1CCCCO[C@H](CN(C)Cc2ccc(C(F)(F)F)cc2)[C@@H](C)CN([C@H](C)CO)C(=O)c2cc(NC(=O)c3ccncc3)ccc2O1	-18.3	-11.5
C[C@H](O)C#Cc1ccc2c(c1)O[C@@H](CN(C)C(=O)C1CCC1)[C@@H](C)CN([C@H](C)CO)S2(=O)=O	4.1	1.9
CN1C(=O)c2cc(NC(=O)Nc3ccccc3)ccc2OC[C@@H]2O[C@H](CC(=O)NC3CCC3)CC[C@H]21	-14.7	-10.1
O=C(C[C@H]1C[C@@H]2c3cc(NC(=O)c4ccc5c(c4)OCO5)ccc3O[C@@H]2[C@@H](CO)O1)NCc1ccccn1	-5.7	-3.4
Cn1cnc(S(=O)(=O)N[C@@H]2CC[C@@H](CC(=O)Nc3ccccc3)O[C@@H]2CO)c1	7.9	3.3
O=C(Nc1cccc(Cl)c1)N[C@@H]1CC[C@H](CCNC(=O)C2CC2)O[C@H]1CO	15.4	10.2
C[C@H](CO)N1C[C@H](C)[C@@H](CN(C)S(=O)(=O)c2ccc([N+](=O)[O-])cc2)OCc2ccccc2-c2c(n(C)c3ccccc23)C1=O	?	/
Cc1ccc(S(=O)(=O)Nc2ccc3c(c2)C(=O)N([C@@H](C)CO)C[C@@H](C)[C@H](CN(C)C(=O)Nc2ccc(F)cc2)OCCCC[C@@H](C)O3)cc1	-12.3	-7.0
CCCC#Cc1ccc([C@H]2[C@H]3CN(S(=O)(=O)Cc4ccccc4)CCCCN3[C@H]2CO)cc1	?	/
CC(C)CC#Cc1ccc([C@H]2[C@@H](CO)N3C(=O)CN(C(=O)Cc4cccnc4)C[C@H]23)cc1	-9.9	-20.2
CC(C)(O)C#Cc1ccc([C@@H]2[C@H](CO)N3CCCCN(S(C)(=O)=O)C[C@@H]23)cc1	27.7	17.5
CC(C)NC(=O)Nc1ccc2c(c1)C(=O)N([C@H](C)CO)C[C@@H](C)[C@H](CN(C)Cc1ccc(Cl)c(Cl)c1)O2	-7.0	3.3
CCN1[C@@H]2Cn3c(ccc(C4=CCCCC4)c3=O)[C@H]1[C@@H](C(=O)N1CCCCC1)[C@@H]2CO	-0.2	-4.8
C[C@H](CO)N1C[C@H](C)[C@H](CN(C)C(=O)Nc2ccccc2)Oc2ccc(NC(=O)Cn3cnnn3)cc2C1=O	10.9	2.4
O=C(Cc1ccccn1)NCC[C@H]1CC[C@H](NS(=O)(=O)c2ccccc2)[C@H](CO)O1	3.6	1.8
O=C(NCC[C@H]1CC[C@@H](NC(=O)C2CCCCC2)[C@H](CO)O1)c1cc(Cl)cc(Cl)c1	-7.6	-3.4
C[C@@H]1CN([C@H](C)CO)C(=O)c2cc(NC(=O)NC3CCCCC3)ccc2O[C@H]1CN(C)Cc1ccc(Cl)c(Cl)c1	?	/
CCC(=O)N1C[C@@H](O)COC[C@H]2O[C@H](CC(=O)NCc3ccc(Oc4ccccc4)cc3)CC[C@@H]21	1.4	-3.6
CCC(=O)N1[C@H](CN(CC)C(=O)c2ccc(F)cc2)[C@H](c2ccccc2)[C@@H]1CO	14.3	15.5
COc1cccc(S(=O)(=O)Nc2ccc3c(c2)[C@H]2C[C@H](CC(=O)O)O[C@@H](CO)[C@H]2O3)c1	21.3	14.2

Overlap with the part before: two entries; new compounds follow.
SMILES	Vaccinia stage	Vaccinia stage Venus
CCC(=O)N1[C@H](CN(CC)C(=O)c2ccc(F)cc2)[C@H](c2ccccc2)[C@@H]1CO	14.3	15.5
COc1cccc(S(=O)(=O)Nc2ccc3c(c2)[C@H]2C[C@H](CC(=O)O)O[C@@H](CO)[C@H]2O3)c1	21.3	14.2
C[C@H]1CN([C@@H](C)CO)C(=O)c2cc(-c3ccncc3)cnc2O[C@@H]1CN(C)C(=O)CN1CCOCC1	29.9	9.2
COc1cccc(C#Cc2ccc3c(c2)O[C@@H](CN(C)C(C)=O)[C@H](C)CN([C@H](C)CO)S3(=O)=O)c1	-30.8	-23.9
O=C(C[C@@H]1CC[C@H]2[C@@H](COC[C@H](O)CN2C(=O)c2ccccc2F)O1)N1CCOCC1	4.7	6.4
CCCc1cn(CC[C@@H]2CC[C@H](NC(=O)C3CCC3)[C@H](CO)O2)nn1	0.8	4.4
COc1cccc(S(=O)(=O)N[C@@H]2CC[C@@H](CC(=O)NC3CCC3)O[C@@H]2CO)c1	8.1	10.1
CCCNC(=O)N1[C@H](C#N)[C@@H](c2ccc(-c3ccccc3F)cc2)[C@@H]1CO	?	/
COc1ccc(NC(=O)Nc2ccc3c(c2)C(=O)N([C@H](C)CO)C[C@H](C)[C@@H](CN(C)S(=O)(=O)c2ccc(C)cc2)OCCCC[C@@H](C)O3)cc1	16.5	8.5
COc1ccc2c3c(n(C)c2c1)[C@@H](CO)N(S(C)(=O)=O)CC31CCN(Cc2cccnc2)CC1	-4.4	-5.3
COc1cccc(CNC(=O)[C@@H]2[C@@H](CO)[C@@H]3Cn4c(cccc4=O)[C@H]2N3C(=O)C2CCCCC2)c1	-3.4	1.1
O=C(NC1CCCCC1)N1CC(=O)N2[C@@H](CO)[C@@H](c3ccc(C4=CCCC4)cc3)[C@@H]2C1	-1.2	6.8
CCCNC(=O)[C@@H]1[C@@H](CO)[C@@H]2Cn3c(ccc(-c4ccccc4OC)c3=O)[C@@H]2N1S(C)(=O)=O	28.2	1.8
COc1ccccc1-c1ccc2n(c1=O)C[C@H]1[C@H](CO)[C@@H](C(=O)N(C)C)N(C(=O)c3cccnc3)[C@@H]21	24.7	13.1
CC(C)CC#Cc1ccc2c(c1)O[C@@H](CN(C)C(=O)C1CCOCC1)[C@H](C)CN([C@@H](C)CO)S2(=O)=O	-8.6	-5.0
C[C@H]1CN([C@@H](C)CO)C(=O)Cc2cc(NC(=O)CCC(F)(F)F)ccc2O[C@H]1CN(C)C	6.1	4.4
COc1ccccc1S(=O)(=O)N[C@H]1CC[C@H](CCn2cc(C3CCCC3)nn2)O[C@@H]1CO	4.9	12.6
COc1ccc(CN(C)C[C@@H]2OCCCC[C@@H](C)Oc3ccc(NS(C)(=O)=O)cc3C(=O)N([C@H](C)CO)C[C@@H]2C)cc1	-5.7	1.4
COc1ccc2c3c(n(C)c2c1)[C@@H](CO)N(C(=O)Nc1ccc(F)cc1)CC31CN(C(=O)Cc2ccncc2)C1	1.9	0.9
C[C@@H]1CCCCO[C@H](CN(C)C)[C@@H](C)CN([C@H](C)CO)C(=O)c2cc(NC(=O)CCC(F)(F)F)ccc2O1	-2.0	-7.0
COc1ccc(NC(=O)N[C@H]2CC[C@@H](CCNC(=O)Cc3ccncc3)O[C@H]2CO)cc1	-1.3	2.3
CC(C)C#Cc1cnc2c(c1)C(=O)N([C@H](C)CO)C[C@H](C)[C@@H](CN(C)C(=O)Nc1ccccc1F)O2	12.0	15.2
CO[C@H]1CN(C)C(=O)c2cc(NC(=O)Nc3cccc(F)c3)ccc2OC[C@H](C)N(C(=O)Nc2c(C)noc2C)C[C@H]1C	-6.1	1.0
Cc1ccc(S(=O)(=O)N(C)C[C@@H]2OCCCC[C@H](C)Oc3ccc(NC(=O)Nc4ccc(F)cc4)cc3C(=O)N([C@@H](C)CO)C[C@@H]2C)cc1	-22.4	-16.3
O=C(c1ccc2c(c1)OCO2)N1CCCCN2[C@H](C1)[C@H](c1ccc(-c3ccccc3)cc1)[C@@H]2CO	-25.8	-33.2
O=C(CCN1CCCCC1)N[C@H]1CC[C@@H](CCNS(=O)(=O)c2ccc(F)cc2)O[C@@H]1CO	8.2	7.9
CC(C)NC(=O)Nc1ccc2c(c1)C(=O)N([C@@H](C)CO)C[C@@H](C)[C@H](CN(C)Cc1ccc(C(=O)Nc3ccccc3N)cc1)O2	-8.4	-9.6
O=C(C[C@@H]1CC[C@@H]2[C@H](COC[C@H](O)CN2C(=O)C2CC2)O1)NCc1ccncc1	0.7	-2.4
COc1cccc(S(=O)(=O)N(C)C[C@H]2Oc3cc(C4=CCCC4)ccc3S(=O)(=O)N([C@@H](C)CO)C[C@@H]2C)c1	-0.7	7.8
CC(C)(C)[S@@](=O)N1Cc2cc(C(=O)O)nc(-c3cccc(-c4cccc(F)c4)c3)c2[C@H]1CCO	1.4	13.9
CO[C@H]1CN(C)C(=O)c2ccc(NC(=O)Nc3cccc(Cl)c3)cc2OC[C@@H](C)NC[C@@H]1C	-14.9	-1.1

Complete entries, looked up by structure. Screens in order: Vaccinia stage | Vaccinia stage Venus
Profile of `COc1ccc2c3c(n(C)c2c1)[C@@H](CO)N(C(=O)Nc1ccc(F)cc1)CC31CN(C(=O)Cc2ccncc2)C1` → 1.9 | 0.9
Profile of `O=C(c1ccc2c(c1)OCO2)N1CCCCN2[C@H](C1)[C@H](c1ccc(-c3ccccc3)cc1)[C@@H]2CO` → -25.8 | -33.2
Profile of `CO[C@H]1CN(C)C(=O)c2cc(NC(=O)Nc3cccc(F)c3)ccc2OC[C@H](C)N(C(=O)Nc2c(C)noc2C)C[C@H]1C` → -6.1 | 1.0
